Tb PYK inh: T. brucei pyruvate kinase inhibition; TbPYK enzyme, Kinase-Glo Plus ATP luminescence, 45 min; Potency, µM (top dose mostly 76.8 µM), for inactives: at the top dose activity, negative = inhibition, actives largely listed as inhibitors; 410,000 compounds, 0.12% hits; AID 624173; also: nearly all actives have a fitted effect of over 50% in size
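Luminescence from Kinase-Glo Plus, added after a 45-minute room-temperature reaction, served as the end-point read-out. The enzyme and substrate were preincubated with compound before ADP (130 uM final) initiated turnover. Concentration-effect curves came from normalized qHTS data.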
LmPK inhibitor: LmPK (Leishmania mexicana) enzyme inhibition. Q27686. purified LmPK, Kinase-Glo ATP luminescence, 1 h. Potency, µM (doses to about 57.5 µM), for the others: at the top dose activity change, negative = inhibition, hits mostly inhibitors. 290,000 compounds, 0.37% hits. AID 1721
Target sequence (Q27686 whole entry, looked up): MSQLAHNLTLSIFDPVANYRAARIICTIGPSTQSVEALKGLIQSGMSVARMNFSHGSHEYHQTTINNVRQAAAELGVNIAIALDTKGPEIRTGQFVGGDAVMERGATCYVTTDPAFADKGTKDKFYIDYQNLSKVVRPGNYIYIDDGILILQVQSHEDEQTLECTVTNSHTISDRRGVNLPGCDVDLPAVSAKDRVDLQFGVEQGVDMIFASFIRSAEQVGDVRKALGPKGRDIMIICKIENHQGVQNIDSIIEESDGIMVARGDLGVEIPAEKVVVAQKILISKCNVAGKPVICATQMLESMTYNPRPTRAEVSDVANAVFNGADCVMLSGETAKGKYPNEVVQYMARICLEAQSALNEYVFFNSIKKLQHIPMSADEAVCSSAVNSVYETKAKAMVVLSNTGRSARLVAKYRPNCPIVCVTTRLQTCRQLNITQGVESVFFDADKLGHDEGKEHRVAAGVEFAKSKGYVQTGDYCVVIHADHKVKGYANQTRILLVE
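In 50 mM imidazole pH 7.2 with 7 mM MgCl2, LmPK (0.1 nM) turned over PEP (0.5 mM) and ADP (0.1 mM) for 1 h at room temperature. Luciferase read-out of ATP.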
* hit, by the source's call; x = no result given; & = joins results of further samples. Calls follow the shape of the dose curve; as a rule, active = well fitted curve in the direction sought with a large enough effect; inconclusive = small, poorly fitted or top-dose-only effect, or another doubt; inactive = no such curve, though single readings can be large; an effect the other way counts as inactive or inconclusive. % is scaled to controls: 0 for no effect and ±100 for the full control effect; potency is read from the fitted curve at half-maximal effect. A portion of the library; most or all hits stand in other tables.

COc1ccc(C2CC(c3ccccc3)=NN2C(=O)CCCC(=O)O)cc1 (centres undefined)
  Tb PYK inh: -5.0% | LmPK inhibitor: -0.6%
CCn1cc(C(=O)O)c(=O)c2cc(F)c(N3CCNCC3)cc21
  Tb PYK inh: -1.5% | LmPK inhibitor: -3.5%
CC(=O)Nc1cccc(-c2nnc(-c3ccc(C)cc3)o2)c1
  Tb PYK inh: -7.5% | LmPK inhibitor: -2.5%
CC(=O)c1nc2ccccc2n1S(=O)(=O)c1ccc(Cl)cc1
  Tb PYK inh: -9.0% | LmPK inhibitor: -1.3%
NS(=O)(=O)c1ccc(NC(=O)Nc2ccccc2)cc1
  Tb PYK inh: 4.0% | LmPK inhibitor: -1.3%
CN/C(=C/[N+](=O)[O-])NCCSCc1ccc(CN(C)C)o1
  Tb PYK inh: 3.3% | LmPK inhibitor: 3.6%
CCOC(=O)c1cncn1[C@H](C)c1ccccc1
  Tb PYK inh: x | LmPK inhibitor: -1.4%
COC(=O)C1=C(C)NC(C)=C(C(=O)OCCN(C)Cc2ccccc2)C1c1cccc([N+](=O)[O-])c1 (centres undefined)
  Tb PYK inh: -8.1%&4.1% | LmPK inhibitor: 0.7%
Cc1nc2ccc(S(=O)(=O)NCC(=O)NCCN3CCCCCC3)cc2s1
  Tb PYK inh: 5.7% | LmPK inhibitor: 0.2%
Nc1nc(N)c2nc(-c3ccccc3)c(N)nc2n1
  Tb PYK inh: 1.8%&0.3% | LmPK inhibitor: -3.3%

An excerpt of these results, with bars between the fields.
smiles | Tb PYK inh | LmPK inhibitor
CC(=O)Nc1cccc(-c2nnc(-c3ccc(C)cc3)o2)c1 | -7.5% | -2.5%
CC(=O)c1nc2ccccc2n1S(=O)(=O)c1ccc(Cl)cc1 | -9.0% | -1.3%
NS(=O)(=O)c1ccc(NC(=O)Nc2ccccc2)cc1 | 4.0% | -1.3%
CN/C(=C/[N+](=O)[O-])NCCSCc1ccc(CN(C)C)o1 | 3.3% | 3.6%
CCOC(=O)c1cncn1[C@H](C)c1ccccc1 | x | -1.4%
COC(=O)C1=C(C)NC(C)=C(C(=O)OCCN(C)Cc2ccccc2)C1c1cccc([N+](=O)[O-])c1 (centres undefined) | -8.1%&4.1% | 0.7%
Cc1nc2ccc(S(=O)(=O)NCC(=O)NCCN3CCCCCC3)cc2s1 | 5.7% | 0.2%

The list goes on:
CN=C(C[N+](=O)[O-])NCCSCc1ccc(CN(C)C)o1
  Tb PYK inh: -3.8% | LmPK inhibitor: x
Cc1nc(-c2ccccc2)c(-c2ccccc2)[nH]1
  Tb PYK inh: -1.9% | LmPK inhibitor: -1.0%
CN=C(NC#N)NCCSCc1nc[nH]c1C
  Tb PYK inh: 0.6%&-2.4% | LmPK inhibitor: 2.6%
COc1ccc(-c2csc(Nc3ccccn3)n2)cc1
  Tb PYK inh: -2.8% | LmPK inhibitor: -2.6%
CCOc1ccc2nc(S(N)(=O)=O)sc2c1
  Tb PYK inh: -17.3%&-1.2% | LmPK inhibitor: -0.8%
CCCC(=O)Nc1ccc(OCC(O)CNC(C)C)c(C(C)=O)c1 (centres undefined)
  Tb PYK inh: 1.4% | LmPK inhibitor: 5.5%
Cc1cccc(N2CCN(C(=O)c3cc4c(=O)n(C)c5ccccc5c4n3C)CC2C)c1 (centres undefined)
  Tb PYK inh: -14.1% | LmPK inhibitor: 5.5%
CCCCNC(=O)NS(=O)(=O)c1ccc(C)cc1
  Tb PYK inh: 1.5%&7.7% | LmPK inhibitor: 2.8%
